High-throughput results as filed in PubChem.
UUG fidelity – modulators of start codon recognition fidelity in yeast; 350,000 tested, 0.13% active; S. cerevisiae UUG-firefly luciferase reporter, luminescence/redox ratio; AID 602363; activity score, % at 18.7 µM;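 active = replicate mean at a twofold rise or more, about +100% in these data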;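 also: firefly luciferase made from a UUG start codon reports start codon fidelity; reporter light over untreated wells divided by growth signal over untreated wells; some hits fall short of that in this replicate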
HIV Env fusion – blocks HIV Env-driven cell-cell fusion | HeLa-JRFL Env/CEM21 cell fusion, luciferase | inhibition, % at 12.3 µM | 360,000 tested, 1.1% active;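 active = mean replicate inhibition score of at least 50 and every replicate individually at or above 50; inconclusive = only one of the two criteria met; inactive = mean below 50 and not all replicates reaching 50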;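 also: 0% = plate neutral controls and 100% = maraviroc near 300 nM; one replicate is shown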
eIF4H inh – inhibitors of RNA binding by human eIF4H; inhibition, % at 35 µM; eIF4H fluorescence polarization binding assay; 290,000 tested, 0.94% active; Q15056;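 active = 50% or more with normal probe brightness, or confirmed in later tests; inconclusive = above 50% with abnormal brightness, or retests that disagree; inactive = below 50% or failed in later tests; about a fifth of its hits are not listed in these tables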;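 also: calls also rest on retests at 20 µM and on dose response follow-up; 0% = protein and probe with vehicle and 100% = probe without protein; strong numbers were not always called active; many hits fall short of the cut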
MT1-MMP act inh – inhibitors of human MT1-MMP activation; HT1080 RFP-PRO-GFP cells, GFP/RFP ratio fluorescence, overnight; percent of plate control window, DMSO zero; GFP/RFP ratio change, % at 20 µM; 360,000 tested, 0.061% active;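 active = GFP/RFP ratio change of at least 30% with cell ATP level not reduced by more than half and red fluorescence within 50% of control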; also: strong numbers were not always called active
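Assay system – RFP-PRO-GFP reporter HT1080 cells · Compound dosing – single dose of 20 µM compound, 1% DMSO final · Incubation – overnight compound exposure at 37 °C · Measure – GFP/RFP fluorescence ratio · Benchmarks – DMSO wells and RFP-L50D-GFP cells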
PABP polyA inh – PABP-poly(A) binding inhibition | P11940 | PABP-poly(A) RNA binding, fluorescence polarization | inhibition, % at 35 µM | 290,000 tested, 1% active;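 active = 50% or more with normal probe brightness, or confirmed in later tests; inconclusive = above 50% with abnormal brightness, or retests that disagree; inactive = below 50% or failed in later tests; about a fifth of its hits are not listed in these tables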;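 also: calls also rest on retests at 20 µM and on dose response follow-up; controls were probe without protein and protein plus probe with vehicle; some compounds called inactive have numbers as strong as hits; many hits fall short of the cut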
Target sequence (P11940 whole entry, looked up): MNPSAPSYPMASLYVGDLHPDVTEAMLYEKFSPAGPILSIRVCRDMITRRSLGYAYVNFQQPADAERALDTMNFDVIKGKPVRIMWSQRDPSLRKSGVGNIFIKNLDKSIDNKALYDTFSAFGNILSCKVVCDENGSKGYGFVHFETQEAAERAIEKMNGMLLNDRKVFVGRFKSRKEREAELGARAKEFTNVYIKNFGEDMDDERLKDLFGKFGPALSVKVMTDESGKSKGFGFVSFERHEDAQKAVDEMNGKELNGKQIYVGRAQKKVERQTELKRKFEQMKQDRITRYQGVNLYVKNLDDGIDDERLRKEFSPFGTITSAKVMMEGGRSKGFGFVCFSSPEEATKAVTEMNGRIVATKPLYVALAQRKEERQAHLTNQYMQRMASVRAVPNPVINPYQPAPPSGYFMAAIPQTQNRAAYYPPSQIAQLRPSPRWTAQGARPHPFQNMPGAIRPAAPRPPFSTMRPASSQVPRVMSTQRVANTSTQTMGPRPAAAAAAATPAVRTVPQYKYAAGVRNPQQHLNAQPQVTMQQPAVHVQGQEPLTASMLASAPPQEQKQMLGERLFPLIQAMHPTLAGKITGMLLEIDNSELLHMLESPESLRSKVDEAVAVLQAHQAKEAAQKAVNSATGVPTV
Rce1 inh – yeast Ras-converting enzyme inhibition. Q03530. calls only. yeast membranes, quenched prenylated peptide cleavage fluorescence. 290,000 tested, 0.27% active;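 active = fall in fluorescence gain of 50% or more versus controls, with final raw signal at or below 3038400; inconclusive = same 50% fall but final raw signal above 3038400; inactive = fall in fluorescence gain under 50%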;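 also: plate controls were neutral control wells for no effect and wells lacking membranes for full effect; tested at 10 µM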
CSC inhib – cancer stem cell inhibition. AID 2717. cancer stem cell-like cells viability, luminescence. inhibition, % at 7.5 µM. 300,000 tested, 1.1% active;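 active = mean at 75% or more and at least half the replicates too; inconclusive = mean and replicates disagree; tested in HMLE shEcad cells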;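 also: 0% = median of negative and 100% = median of positive control wells; the first replicate is given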
MT1-MMP act inh RFP – further read-out of MT1-MMP act inh, marked with its call; RFP signal change, %; measured here: RFP expression control read;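 0 = vehicle wells; hits needed this value within 50% of zero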
* marks the source's active call; other numbers are inactive results; i = inactive; u = inconclusive; x = not tested or not shown; & = joins results of further samples; [ ] = dose if it differs, or a comment.

SMILES	UUG fidelity	HIV Env fusion	eIF4H inh	MT1-MMP act inh	MT1-MMP act inh RFP	PABP polyA inh	Rce1 inh	CSC inhib
COc1ccc2nc(Cl)c(C=O)c(N3CCOCC3)c2c1	-31	25	x	-10	-1	x	x	x
CCCCCN1C(C)=CC(=C(C#N)C#N)C=C1C	x	13	-8	-4	-1	0	i	-4
O=C(Nc1ccc(N2CCOCC2)cc1N1CCOCC1)c1ccc(Cl)cc1	-14	6	7	-4	2	-4	i	10
CC1(C)Cc2c(C#N)c(N3CCN(C(=O)c4ccco4)CC3)nc(-c3ccco3)c2CS1	-13	-20	u	1	3	12	i	3
COc1ccc(C(=O)COC(=O)/C=C/c2ccc(S(=O)(=O)Nc3cccc(S(N)(=O)=O)c3)cc2)cc1	x	1	-3	-4	-10	-8	i	49
CC(C)Sc1nc2c(c(=O)[nH]c(=O)n2C)n1Cc1ccccc1	-2	-5	-7	4	0	0	i	-2
CCOC(=O)N1CCN(C(=O)CNC(=O)c2nn(-c3ccc(OC)c(Cl)c3)c(=O)c3ccccc23)CC1	-3	-13	-2	3	-2	-5	i	-9
O=C(CSc1nccn1-c1ccc(Cl)cc1)NCc1ccc2c(c1)OCO2	-22	-6	3	2	-3	8	i	-2
Cc1c(NC(=O)COc2ccc(C(C)C)cc2)c(=O)n(-c2ccccc2)n1C	-7	-4	0	0	-3	-2	x	-11
CC1(c2ccccc2)NC(=O)N(CC(=O)Nc2ccc(N3CCOCC3)cc2)C1=O (stereo not given)	-6	x	x	10	2	x	x	-13
C[C@H](CO)N1C[C@H](C)[C@@H](CN(C)C(=O)Nc2ccc(C(F)(F)F)cc2)Oc2ccc(NC(=O)NC3CCCCC3)cc2C1=O	-11&4	15[16.7 µM]	x	-2	1	x	x	x
O=C(NN1CCCCC1)c1ccc(COc2ccc(Cl)cc2)cc1	x	-2	-10	3	-4	-17	x	-6
CN(C)CCOC(=O)C12CC3(C)CC(C)(CC(C)(C3)C1)C2	-13	x	-5	-2	1	8	i	-7
Cc1cccc(C(=O)NCC(=O)OCc2nc(N)nc(Nc3ccccc3C)n2)c1	-2	x	x	-4	5	x	x	0
CC(C)CC1NC(=O)N(CC(=O)Nc2ccc3c(c2)OCCO3)C1=O (stereo not given)	-4	-6	x	-2	5	x	x	5
O=C(/C=C/c1ccc(Cl)cc1Cl)Nc1cccc(S(=O)(=O)NC2=NCCCCC2)c1	x	10	4	3	-8	0	i	16
C=CCn1c(NCc2ccccc2)nc2ccccc21	-5	-16	-2	-1	-2	4	i	-12
CCOC(=O)C1CCN(C(=O)Cn2cc(C(=O)C3CC3)c3ccccc32)CC1	-9	8	-7	2	1	-3	i	-7
O=C(CN1CCN(Cc2cccc(F)c2)CC1)NCc1ccccc1	-6	-5	7	1	7	-8	i	-5
COc1ccc(C2c3c(oc4ccc(Cl)cc4c3=O)C(=O)N2Cc2ccco2)cc1OC (stereo not given)	x	x	-10	x	x	-12	i	x
O=c1[nH]nc(N=Nc2c(O)[nH]c3ccc(F)cc23)c(=O)[nH]1	-1	15	x	3	1	x	x	x
O=C(Cn1cc(C(=O)c2cccs2)c2ccccc21)NCC1CCCO1 (stereo not given)	-23	-40	3	4	2	-6	i	-18
CCNC(=O)CCSc1nc2cc(Cl)ccc2o1	-13	x	-16	3	-1	-1	x	x
Cc1noc(C)c1CN1C(=O)NC2(CCCCCCC2)C1=O	-18	-1	0	9	0	-4	i	-7
O=C(NCCN1C(=O)S/C(=C\c2ccccc2F)C1=O)C1CCN(S(=O)(=O)c2cccs2)CC1	-2	2	-7	-7	-2	-2	i	-2
Next structures follow.
SMILES	UUG fidelity	HIV Env fusion	eIF4H inh	MT1-MMP act inh	MT1-MMP act inh RFP	PABP polyA inh	Rce1 inh	CSC inhib
CN(C)C(CNC(=O)c1ccc(NS(=O)(=O)c2cccc([N+](=O)[O-])c2)cc1)c1ccco1 (stereo not given)	13	-7	-6	1	3	-4	i	-2
Cc1nnc(SC(C)C(=O)Nc2sc3c(c2C#N)CCCC3)[nH]c1=O (stereo not given)	-11	8	-14	0	-1	12	i	-3
N#Cc1cn(OCc2ccccc2)c(=O)[nH]c1=O	-6	-13	-9	9	3	20	i	-6
Cc1c(C(=O)N2CC3(CC(c4cccc(NC(=O)CC(c5ccccc5)c5ccccc5)c4)=NO3)C[C@@H]2C(N)=O)cc([N+](=O)[O-])cc1[N+](=O)[O-] (stereo not given in full)	-17	17	-8	4	0	1	i	14
CSc1cccc(NC(N)=S)c1	-18	5	-11	2	6	-2	i	-1
CN(C)S(=O)(=O)c1cccc(NC(=O)c2ccc(-n3cncn3)c([N+](=O)[O-])c2)c1	-8	2	x	0	-7	x	i	x
O=C(CSc1nnc2ccc(-c3cccnc3)nn12)Nc1ccc(F)cc1	-22	-5	x	-6	2	x	i	-7
Cc1noc(C)c1COc1cccc(C(=O)N2CCN(C/C=C/c3ccccc3)CC2)c1	-34	-36	-6	1	-10	-6	i	-5
Fc1ccc(OCc2cc(-c3ccccc3)no2)cc1	-8	-77	3	-7	-10	10	i	5
COc1cc(NC(=O)CC(C)C)ccc1NC(=O)c1ccco1	-16	x	x	1	2	x	i	-13
Cc1c(NC(=O)C23CC4CC(CC(C)(C4)C2)C3)c(=O)n(-c2ccccc2)n1C	-11	-52	-1	2	3	-7	i	-4
Cc1cc(C)cc(NC(=O)C2CCC(CNC(=O)[C@@H]3Cc4ccccc4CN3)CC2)c1 (stereo not given in full)	2	-7	-6	-5	-6	-10	i	-12
CC(=O)NCC(=O)N1CCCC(C(=O)c2ccc3c4c(cccc24)CC3)C1 (stereo not given)	x	21	0	-1	1	-4	x	-8
O=C(O)c1ccc(C=NNC(=O)c2ccccc2NS(=O)(=O)c2cccs2)cc1	-6	x	x	-1	3	x	x	-10
CSC(C(=O)c1cc2ccccc2o1)c1ccccc1 (stereo not given)	10	-46	x	-3	0	x	i	12
CCOC(=O)c1ccc(NS(=O)(=O)c2ccc3c(c2)oc(=O)n3C)cc1	11	2	7	-1	-6	-10	i	x
O=C(NC(=C(Cl)Cl)S(=O)(=O)c1ccc(Cl)cc1)c1ccccc1	-15	-63	7	7	5	9	i	69
CN(CC(=O)NCc1ccncc1)S(=O)(=O)c1cc(Cl)ccc1Cl	-19	3	-13	0	1	-15	i	-7
COc1ccc(S(=O)(=O)N2CCN(C(=O)c3cc(C)oc3C)CC2)cc1OC	-6	2	x	0	-2	x	x	3
C[C@@H]1CN([C@H](C)CO)C(=O)CCCn2cc(nn2)CO[C@H]1CN(C)S(=O)(=O)c1ccccc1	-1&3	-12	x	-1	0	x	x	x
O=C(COc1ccc(F)cc1Br)NCCCN1CCCC1=O	-18	7	x	4	4	x	x	-18
Cc1ccc(S(=O)(=O)NCCC(=O)Nc2ccc(Cl)c(Cl)c2)cc1C	x	28	-1	-1	-2	4	i	24
COc1ccccc1C(=O)NCCC(=O)Nc1ccc(OC(F)(F)F)cc1	-4	-8	-7	2	0	5	i	0
CC(=O)N1CCN(C(=O)c2ccc(NS(=O)(=O)c3ccc4[nH]c(=O)[nH]c4c3)cc2)CC1	x	-18	x	-5	4	x	i	-17
O=C(c1cccc(Br)c1)N1CCN(c2ccc(N3CCOCC3)nn2)CC1	-18	4	x	5	1	x	i	-20
New compounds follow
SMILES	UUG fidelity	HIV Env fusion	eIF4H inh	MT1-MMP act inh	MT1-MMP act inh RFP	PABP polyA inh	Rce1 inh	CSC inhib
O=C(Cn1nc(C(=O)O)c2ccccc2c1=O)c1cc(F)ccc1F	-22	-16	0	5	4	8	i	9
CC(C)n1nc(C(=O)OCn2nnc3ccccc3c2=O)c2ccccc2c1=O	x	-6	1	2	3	11	i	-8
CCOC(=O)N1CCC(N2CCCC(C(=O)c3ccc4cc(OC)ccc4c3)C2)CC1 (stereo not given)	x	-9	-8	3	-2	-4	i	23
Cc1cc(NC(=O)c2ccc(N3CCCC3)c([N+](=O)[O-])c2)no1	x	-3	46	3	3	4	i	x
COc1ccc(-n2nc(C(=O)NCC(=O)NCC3COc4ccccc4O3)c3ccccc3c2=O)cc1 (stereo not given)	x	-1	-1	-9	-13	10	i	5
O=C(O)CCCNS(=O)(=O)c1ccc(F)cc1	-10	-13	-10	5	-3	1	i	-14
COc1ccc(-c2noc(CN(C)Cc3ccc(C)o3)n2)cc1	x	-20	4	0	-2	-4	i	7
C=C1CCN([C@@H](CC(C)C)C(=O)O)S(=O)(=O)c2ccccc21	-5	-3	x	2	2	x	i	15
CCC(C)Nc1nc2c(c(=O)n(C)c(=O)n2C)n1Cc1ccc(Cl)cc1 (stereo not given)	17	3	4	-1	-2	3	i	2
CC1(C)CC(=O)C=C(c2cccc(OC(=O)c3ccc(Br)cc3)c2)C1=O	-5	6	x	-2	-2	x	x	x
CC1CC(C)CN(C(=O)c2ccc3ncsc3c2)C1 (stereo not given)	2	x	x	4	0	x	x	-16
O=C(Nc1cccc(C(F)(F)F)c1)c1cccnc1NCCO	-5	-22	-4	1	-2	-5	i	-15
C[C@H](CO)N1C[C@H](C)[C@@H](CN(C)C(=O)Nc2ccc3c(c2)OCO3)Oc2ccc(NC(=O)NC3CCCCC3)cc2C1=O	-1&-2	17[16.7 µM]	x	0	5	x	x	-4
CCOc1ccc(NC(=O)CSc2nc3c([nH]c4ccccc43)c(=O)n2C)cc1	-19	-17	1	4	5	10	i	4
Cc1ccccc1CS(=O)(=O)Cc1ccc(C(=O)NCc2ccco2)o1	-12	11	3	-1	7	11	i	-5
COC(=O)c1sccc1NC(=O)CCC1CCCCC1	-8	-28	-7	-3	-2	10	i	19
Cc1cc(C)c2c(c1C)C(=O)CCC2	-22	-7	x	0	1	x	x	x
CC(CN1CCOCC1)(NS(=O)(=O)c1ccccc1)c1ccccc1 (stereo not given)	2	x	0	4	-1	9	i	-2
OC(C#CCN1CCOCC1)(c1ccccc1)C1CC1 (stereo not given)	12	u	-4	0	-4	24	i	-2
CCCNC(=S)Nc1ccc(Cl)cc1C	x	26	-9	1	7	-6	i	22
CSc1nnc(-c2ccc(NC(=O)CCc3ccccc3)cc2)n1C	-24	24	1	0	-5	49	i	1
COc1ccc(C2C(C(=O)N3CCN(c4ccccc4)CC3)c3ccccc3C(=O)N2C)cc1 (stereo not given)	13	-100	-2	4	-3	12	i	-12
O=C(CSc1ccccc1)NCc1cccnc1	0	-66	1	0	1	8	i	-9
COc1ccc(CNC(=O)CSc2cc(=O)n(C)c3ccccc23)cc1	x	u	4	-1	0	-1	i	12
N#Cc1c2n(c3c(-c4ccccc4)ncnc13)CCC2	-21	x	-1	-4	0	0	i	-8
More compounds follow.
SMILES	UUG fidelity	HIV Env fusion	eIF4H inh	MT1-MMP act inh	MT1-MMP act inh RFP	PABP polyA inh	Rce1 inh	CSC inhib
COc1ccccc1Oc1coc2c(CN3CCN(C)CC3)c(O)ccc2c1=O	-10	x	-5	8	3	-4	i	-6
CS(=O)(=O)Nc1ccc(-c2cccc3nccn23)cc1	-25	-47	x	2	3	x	x	x
O=C(NCCCc1ccccc1)C1CC1	-2	4	x	-1	1	x	i	0
CC(C)(C)C1CCc2onc(C(=O)Nc3cccc(O)c3)c2C1 (stereo not given)	x	x	-4	-1	-13	-5	i	14
O=C(COC(=O)CC1CC2CCC1C2)Nc1ccccc1Cl (stereo not given)	-10	-4	x	2	1	x	x	-13
COc1ccc2c(Cn3cnc4cc([N+](=O)[O-])ccc4c3=O)cc(=O)oc2c1	2	x	15	4	-6	4	i	65

Only eIF4H inh, CSC inhib and MT1-MMP act inh (two entries from above):
smiles | eIF4H inh | CSC inhib | MT1-MMP act inh
CC(C)(C)C1CCc2onc(C(=O)Nc3cccc(O)c3)c2C1 (stereo not given) | -4 | 14 | -1
Cc1cccc(C(=O)NCC(=O)OCc2nc(N)nc(Nc3ccccc3C)n2)c1 | x | 0 | -4
